CapD inh: Bacillus anthracis CapD inhibitors, primary screen, biochemical, fluorescence intensity; CapD gamma-glutamyltranspeptidase (Bacillus anthracis Ames Ancestor); purified CapD enzyme, fluorescence intensity read-out; stronger effect = lower value; some hits fall short of the stated cut; z-score (concentration not given with the values); 0.23% of 140,000 active;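 active means z-score under -4 in either of two replicates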;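 further: stock transfer was 100 nL into about 40 µL; score is relative to mean and spread of the plate; one replicate is shown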
AID504770: growth inhibition of E. coli YBA685, primary screen, V. cholerae RctB inhibitors; E. coli YBA685 rctB-dependent plasmid, OD600 growth, 3 h; stronger effect = lower value; z-score (no concentration beside the values); 0.27% of 130,000 active;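 active means z-score under -2 on both plates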;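 further: wells of about 30 µL received 100 nL stock; score is relative to mean and SD of the test wells; the first replicate is given; strong numbers were not always called active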
Starred values were filed as active, the others as inactive; / = no result given. Rows were taken by chance; about 0.37% have a hit in one of these screens.

Each structure is followed by: CapD inh | AID504770
> Brc1ccc(-n2cc3cnnc(-c4ccccc4)c3n2)cc1
→ / | -0.5
> CCOc1ccc(-n2c(=O)c3ccc(Cl)cc3n3c(Cn4nnc(-c5ccccc5)n4)nnc23)cc1
→ / | -1.1
> CSc1nc2ccccc2n1Cc1ccc(C(C)C)cc1
→ 0.59 | -0.5
> O=C(N(c1ccccc1)c1ccc(F)cc1)C12CC3CC(CC(C3)C1)C2
→ 0.32 | -0.2
> COC(=O)c1cc2c(C(F)(F)F)cc(=O)[nH]c2s1
→ 84 | -0.25
> CC(C)CC(N)C(=O)NC(CC(C)C)C(=O)O (stereo not drawn)
→ 0.42 | /
> COC(=O)N/N=C/c1cccc(OC)c1O
→ / | -0.75
> COC(=O)c1ccc(-c2nc(-c3cccc(C(F)(F)F)c3)cs2)cc1
→ 0.89 | /
> C=C(C)C1Cc2cc(/C=C/C(=O)O)c(O)cc2O1 (stereo not drawn)
→ / | -0.4
> CCN(CC)CCOC(=O)C1(c2ccc([N+](=O)[O-])cc2)CCCC1
→ 0.45 | /
> CC(=O)OC(OC(C)=O)c1ccc(S(N)(=O)=O)cc1
→ 0.61 | -0.05
> COC(=O)c1ccc2c(=O)n(CC(C)O)c(=S)[nH]c2c1 (stereo not drawn)
→ / | -0.35
> CCOC(=O)c1c(N)nn(C(=O)C(C)C)c1-c1ccccc1
→ 0.78 | 0.3
> Cc1csc(NC(=O)c2cccc(S(=O)(=O)N(C)C)c2)n1
→ / | -1.9
> COC(=O)c1ccc(-n2c(C)cc(C(=O)CN3C(=O)CN(C)C3=O)c2C)cc1
→ / | 0.2
> O=C1CCC(=O)N1CC(O)Cn1c2ccc(Br)cc2c2cc(Br)ccc21 (stereo not drawn)
→ 0.06 | /
> C1COCCOCCOCCN1
→ 0.095 | -0.3
> CCCn1c(C)cc(/C=C(\C#N)C(=O)OCc2nc(N)nc(Nc3ccccc3C)n2)c1C
→ / | 1.1
> CCCCC(C)n1[nH]c(=O)c2c(C)cc(=O)[nH]c21 (stereo not drawn)
→ 0.28 | 2.3
> COc1ccccc1CCNC(N)=O
→ 0.12 | /
> O=C(Cn1cnc2ccccc21)Nc1ccc2c(c1)OCCO2
→ -0.4 | 0.1
> CCOC(=O)N1CCN(S(=O)(=O)c2ccc(C(=O)Nc3nc4ccc5nc(SC)sc5c4s3)cc2)CC1
→ -0.77 | /
> CN(C)C(=O)C(OC(=O)c1ccc(Cl)c(N)c1)c1ccccc1 (stereo not drawn)
→ / | 0
> CCOC(=O)c1cnc(SC)nc1Oc1cc(Cl)ccc1Cl
→ -0.21 | /
> CC1CN(c2oc(COc3ccc(Cl)cc3Cl)nc2C#N)CC(C)O1 (stereo not drawn)
→ -0.29 | -0.55
> COCCCC/C(=N\OCCN)c1ccc(C(F)(F)F)cc1
→ 0.54 | /
> O=C(CCC(=O)N1CCN(CCO)CC1)c1ccccc1
→ -0.54 | /
> Cc1ccccc1S(=O)(=O)Cc1ccc(C(=O)NCCCN2CCC(C)CC2)o1
→ -0.24 | 0.25
> CC(C)(C)CC[n+]1ccc(C(N)=O)cc1
→ -0.14 | 0.1
> Cc1ccc(S(=O)(=O)NCC(=O)OC2CCOC2=O)cc1 (stereo not drawn)
→ / | -0.25

Part of the list above, set out differently:
| SMILES | CapD inh | AID504770 |
| --- | --- | --- |
| CC(C)CC(N)C(=O)NC(CC(C)C)C(=O)O (stereo not drawn) | 0.42 | / |
| O=C1CCC(=O)N1CC(O)Cn1c2ccc(Br)cc2c2cc(Br)ccc21 (stereo not drawn) | 0.06 | / |
| CC1CN(c2oc(COc3ccc(Cl)cc3Cl)nc2C#N)CC(C)O1 (stereo not drawn) | -0.29 | -0.55 |
| CC(C)(C)CC[n+]1ccc(C(N)=O)cc1 | -0.14 | 0.1 |

The list continues:
Each structure is followed by: CapD inh | AID504770
> CC(C)(C)/C(O)=C(/C#N)c1nc2ccccc2[nH]1
→ 74 | 0.2
> COc1ccc(CCN2C(=O)CC(C(=O)Nc3ccc(C(=O)O)cc3)SC2=Nc2ccc(F)cc2)cc1OC (stereo not drawn)
→ -0.03 | /
> NC(=O)c1ccc(NC(=O)COc2cc(Cl)ccc2Cl)cc1
→ -0.23 | -0.4
> Cc1sc2nc(SCc3nnc(Nc4ccccc4)s3)nc(N)c2c1C
→ -0.14 | -0.55
> CCN(CC(=O)Nc1cc(Cl)ccc1C)C(=O)CC1CCCC1
→ / | 1.4
> Cc1nc(C(=O)Nc2ccc(F)cc2F)nn1-c1ccc(Cl)cc1Cl
→ 0.085 | /
> Cc1onc(-c2c(Cl)cccc2Cl)c1C(=O)Oc1cc(C(F)(F)F)nn1C
→ 0.15 | /
> NC(=O)c1c(Nc2ccccc2)sc(C(=O)c2ccccc2)c1N
→ 0.72 | 1.9
> C=CCN1C(=O)C2(/C(=C(/O)c3ccccc3)C(=O)C(=O)N2CCOC)c2ccccc21 (stereo not drawn)
→ 1.3 | -1.5
> O=C(c1ccccn1)C1CC1c1ccccc1 (stereo not drawn)
→ -0.2 | -0.8
> COC(=O)C1=C(C)NC(SCC(=O)Nc2cccc(OC)c2)=C(C#N)C1c1ccccc1Cl (stereo not drawn)
→ 3.5 | /
> N#CCCSc1nnc(-c2ccncc2)n1Cc1ccccc1
→ / | -0.4
> CC(C)c1nc(N)nc(=O)[nH]1
→ -0.08 | 0.45
> CC(=O)Nc1ccc(S(=O)(=O)N2CCN(c3cccc(C)c3)C(C)C2)cc1 (stereo not drawn)
→ -0.29 | /
> O=C(Cc1noc2ccccc12)Nc1ccc(F)cc1
→ 0.16 | -0.2
> CC1COC(=O)C(NNc2ccc(Cl)c(Cl)c2)=N1 (stereo not drawn)
→ -0.18 | -1.1
> CCC(C)OC(=O)COc1ccc2c(=O)c(-c3ccc(OC)c(OC)c3)c(C(F)(F)F)oc2c1 (stereo not drawn)
→ -0.45 | -0.25
> NS(=O)(=O)c1ccc(CCNC(=O)CSc2nc3ccccc3c(=O)n2CCC(=O)NCCc2ccccc2)cc1
→ -0.17 | /
> COC(=O)C(Cc1cn(Cc2ccccc2)cn1)NC(=O)c1ccc(N2N=C(C)CC2=O)cc1 (stereo not drawn)
→ -1.5 | /
> CC1=C(C(=O)c2ccccc2)C(c2ccc(C)cc2)NC(=O)N1 (stereo not drawn)
→ 0.43 | -0.5
> NNC(=S)NCCc1ccc(Cl)cc1
→ 0.43 | -0.55
> CCOc1cc(C=C2C(=O)NC(=S)NC2=O)ccc1OCCOc1ccc(C)c(C)c1
→ 0.18 | /
> Cc1nnc(NCc2ccco2)s1
→ / | 0.25
> CCOC(=O)C(C)Sc1nnc(NC(=O)Nc2ccc(F)cc2)s1 (stereo not drawn)
→ / | -1.2
> NC(=O)c1c(NC(=O)C2CC2)sc2c1CCCC2
→ 6.1 | 0.1
> COc1cc(-c2nc3ccccc3nc2-c2ccc(O)c(OC)c2)ccc1O
→ -1.2 | -0.55
> COC(=O)C1=C(C)NC(C)=C(C(=O)OC)C1c1ccc(OC(=O)c2oc3ccccc3c2C)c(OC)c1
→ 5.2 | /
> Cc1ccccc1NCCC(=O)Nc1ccc(Cl)cc1
→ / | -0.1
> COc1ccc(-c2nc3ccccc3n2OCc2cccc(Cl)c2)cc1
→ -0.53 | /
> Cc1cc(C(=O)CC#N)c(C)n1-c1ccccc1F
→ 0.47 | -0.5

Entries of single compounds, quoted from the list. Values in the order: CapD inh | AID504770
COc1ccc(CCN2C(=O)CC(C(=O)Nc3ccc(C(=O)O)cc3)SC2=Nc2ccc(F)cc2)cc1OC (stereo not drawn) is entered as -0.03 | /
COc1cc(-c2nc3ccccc3nc2-c2ccc(O)c(OC)c2)ccc1O is entered as -1.2 | -0.55
CC(=O)Nc1ccc(S(=O)(=O)N2CCN(c3cccc(C)c3)C(C)C2)cc1 (stereo not drawn) is entered as -0.29 | /
CC(C)c1nc(N)nc(=O)[nH]1 is entered as -0.08 | 0.45

Next compounds
Each structure is followed by: CapD inh | AID504770
> CN(C)c1cc(C(=O)Nc2ccc(C(C)(C)C)cc2)nc(N(C)C)n1
→ 3.5 | /
> C[C@]12CCC(=O)C=C1CC=C1C2CC[C@@]2(C)C1CC[C@]2(O)C#N (stereo partly drawn)
→ 7.2 | /
> O=C(NCC1COc2ccccc2O1)c1ccc2c(Cl)c3c(nc2c1)CCCC3 (stereo not drawn)
→ -0.86 | 0.45
> COC(=O)Cn1c(O)c(N=NC(=O)c2ccc3c(c2)OCO3)c2ccccc21
→ / | -0.75
> O=c1cc(CSc2nnc(-c3cccnc3)n2-c2ccccc2F)nc2sccn12
→ / | -1.7
> Cc1oc(-c2ccc(Cl)cc2)cc1C(=O)/C(C#N)=C/Nc1ccccc1
→ 0.57 | -0.6
> O=C(Nc1ccc(OC(F)(F)F)cc1)Nc1cc(C(F)(F)F)ccn1
→ 0.65 | -1.5
> c1ccc2[nH]c(NCCCN3CCOCC3)nc2c1
→ 0.095 | 1.4
> CCn1c2ccccc2c2cc(NC(=O)COc3ccc(OC)cc3)ccc21
→ -1.4 | -1.8
> CCNc1nc(Oc2cc(Cl)cc(Cl)c2)cc(C(F)(F)F)n1
→ 0.09 | /
> CC(C(=O)O)N1C(=O)c2cccnc2Sc2ccccc21 (stereo not drawn)
→ 0.15 | 0.65
> COc1cccc(C2=NC(=C(C)C)C(=O)O2)c1
→ / | 0
> CC1CC(N(C(=O)c2cccc(Br)c2)c2ccccc2)c2ccccc2N1C(=O)c1cccc(Br)c1 (stereo not drawn)
→ 0.23 | /
> O=c1oc2ccc(Cl)cc2cc1-c1cn2ccccc2n1
→ 1.6 | 0.8
> CN(C)C(=O)Oc1noc2ccc(Cl)cc12
→ -1 | /
> CN1CCC(N(C2CC2)S(=O)(=O)c2ccc(NC(=O)Nc3ccccc3)cc2)CC1
→ -0.28 | /
> COC(=O)C1=C(N)OC2=C(C(=O)CC(C)(C)C2)C1c1ccc(C)cc1 (stereo not drawn)
→ 0.84 | 0.55
> FC(F)(F)c1cccc(N/C=C/c2ncc(C(F)(F)F)cc2Cl)c1
→ 0.8 | /
> O=C1C2OCC(O2)[C@@H]2[C@@H]1[C@@H]1C=Cc3ccccc3N1[C@@H]2C(=O)c1ccccc1 (stereo partly drawn)
→ -0.15 | /
> CSC1=C(C#N)C(c2ccccc2Cl)C(C(=O)Nc2ccccc2)=C(C)N1 (stereo not drawn)
→ 2.6 | -0.55
> CCOC(=O)c1cnn(-c2ccc([N+](=O)[O-])cc2)c1N
→ -0.15 | /
> CCSc1nc2c(c(=O)n1-c1ccc(OC)cc1)C1(CCCC1)Cc1ccccc1-2
→ -0.06 | /
> C=CCN1C(=O)S/C(=C/c2cn(CC(=O)O)c3ccccc23)C1=O
→ -1.3 | -0.1
> COc1cc2c(cc1OC)C(C)N(C(=O)CN1CCOCC1)CC2 (stereo not drawn)
→ / | -0.5
> COC(=O)Sc1nnc(-c2ccc(Br)cc2)o1
→ 0.02 | -1
> CCOC(=O)N1CN(Cc2ccccc2)Cc2c1oc1ccccc1c2=O
→ 16 | 1.1
> Cc1ccsc1CN(C)C(=O)Cn1c(C)nc2scc(-c3cccs3)c2c1=O
→ / | 0.65
> CS(=O)(=O)c1ccc(-n2cc(-c3ccc(C(=O)NCc4cccnc4)cn3)cn2)cc1
→ 5.9 | /
> CN(C)S(=O)(=O)Oc1ccc(Cl)cc1C(=O)Nc1ccccc1Cl
→ 0.035 | /
> COc1ccc(C(=O)Nc2cc3c4c(c2)CCN4C(=O)CC3)c(OC)c1
→ / | 0.05

Next part:
Each structure is followed by: CapD inh | AID504770
> O=C(CC12CC3CC(CC(Br)(C3)C1)C2)Nc1cccnc1
→ -1.1 | -0.9
> c1csc(-c2ccc(-c3ccon3)s2)c1
→ 46 | 0.8
> COC(=O)C1=C(NN(C)c2ccc(OC)cc2)CN(c2ccccc2)C1
→ 0.38 | -0.5
> CCCCNC(=S)Nc1ccc(SC(F)F)cc1
→ / | -0.3
> CC1(C)CC(=O)C2=C(C1)c1c(ccc3ccccc13)NC2c1ccccn1 (stereo not drawn)
→ 81 | /
> CCOC(=O)C1CCCN(C(=O)c2ccc3c(=O)n(Cc4ccccc4OC)c(=S)[nH]c3c2)C1 (stereo not drawn)
→ -0.53 | /
> CCCNC(=O)COc1ccc(OC)cc1
→ -0.075 | -1.7
> O=C(/C=C/c1ccc(O)c(O)c1)OC(Cc1ccc(O)c(O)c1)C(=O)O (stereo not drawn)
→ / | -0.3
> COCc1c(N)c(C)nc(Cl)c1C#N
→ / | -0.7
> NC(=O)c1ccccc1NS(=O)(=O)c1ccccc1
→ / | -0.75
> CC1=C(C(=O)N2CCCCC2)C(c2ccsc2)C2=C(CCCC2=O)N1 (stereo not drawn)
→ 9.8 | 2.5
> CNC(=O)Nc1ccc(C(=O)N/N=C\C23CC[C@@H](O)CC2(O)CC[C@@H]2[C@@H]3CCC3(C)C(C4=CC(=O)OC4)CCC23O)cc1 (stereo partly drawn)
→ -0.39 | /
> COC(=O)CNC(=O)c1ccccc1C
→ / | -0.05
> O=C(Cc1ccc(F)cc1)NC1CCCCC1
→ -0.22 | 0.75
> CCc1ccc(NS(C)(=O)=O)cc1
→ -0.16 | -0.2
> O=C1CSc2ccc(C(F)(F)F)cc2N1Cc1ccccc1
→ 0.52 | -0.25
> CC(=O)C1=C(C)Nc2ccccc2S1
→ -1.1 | /
> CC1CCCCN1C(=O)c1ccc(Br)cc1 (stereo not drawn)
→ 0.82 | -0.45
> CC1CCCN(Cn2nc(-c3ccccc3Cl)n(-c3ccccc3)c2=S)C1 (stereo not drawn)
→ -0.45 | /
> CN1CCc2c(sc(NC(=O)c3ccc(S(=O)(=O)N(C)C)cc3)c2C(N)=O)C1
→ / | -0.8
> CCCSc1nc2c([nH]c3ccccc32)c(=O)n1-c1ccc(F)cc1
→ 4.5 | -0.15
> S=C(NCc1ccco1)Nc1ccc(N2CCOCC2)c2nonc12
→ -1.1 | 0.1
> COc1cc(COC(=O)N2CCCC2C(=O)OCc2ccc([N+](=O)[O-])cc2)cc(OC)c1 (stereo not drawn)
→ 0.23 | /

Screening results: PubChem, ICCB-Longwood Screening Facility, Harvard Medical School
